Screening results (PubChem)
LANA-H2B inh: blockers of LANA interaction with H2A/H2B – biochemical, FP readout, HTS, primary screen | Protein LANA1 (Human herpesvirus 8 type P (isolate GK18)), Q9QR71 | cell-free LANA-H2A/H2B peptide, fluorescence polarization | inhibition, % (no concentration beside the values) | 320,000 tested, 0.6% active | AID 2629, 2010; in the data active = inhibition mostly above about 10%, no sharp cut-off; inactive = mostly below about 6.7%;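 also: stock transfer was 7.5 nL into about 10 µL; 0% = median of vehicle wells and 100% = median of positive control wells; one replicate is shown; the record names a cut of 25% in any replicate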
Target sequence (Q9QR71 whole entry, looked up): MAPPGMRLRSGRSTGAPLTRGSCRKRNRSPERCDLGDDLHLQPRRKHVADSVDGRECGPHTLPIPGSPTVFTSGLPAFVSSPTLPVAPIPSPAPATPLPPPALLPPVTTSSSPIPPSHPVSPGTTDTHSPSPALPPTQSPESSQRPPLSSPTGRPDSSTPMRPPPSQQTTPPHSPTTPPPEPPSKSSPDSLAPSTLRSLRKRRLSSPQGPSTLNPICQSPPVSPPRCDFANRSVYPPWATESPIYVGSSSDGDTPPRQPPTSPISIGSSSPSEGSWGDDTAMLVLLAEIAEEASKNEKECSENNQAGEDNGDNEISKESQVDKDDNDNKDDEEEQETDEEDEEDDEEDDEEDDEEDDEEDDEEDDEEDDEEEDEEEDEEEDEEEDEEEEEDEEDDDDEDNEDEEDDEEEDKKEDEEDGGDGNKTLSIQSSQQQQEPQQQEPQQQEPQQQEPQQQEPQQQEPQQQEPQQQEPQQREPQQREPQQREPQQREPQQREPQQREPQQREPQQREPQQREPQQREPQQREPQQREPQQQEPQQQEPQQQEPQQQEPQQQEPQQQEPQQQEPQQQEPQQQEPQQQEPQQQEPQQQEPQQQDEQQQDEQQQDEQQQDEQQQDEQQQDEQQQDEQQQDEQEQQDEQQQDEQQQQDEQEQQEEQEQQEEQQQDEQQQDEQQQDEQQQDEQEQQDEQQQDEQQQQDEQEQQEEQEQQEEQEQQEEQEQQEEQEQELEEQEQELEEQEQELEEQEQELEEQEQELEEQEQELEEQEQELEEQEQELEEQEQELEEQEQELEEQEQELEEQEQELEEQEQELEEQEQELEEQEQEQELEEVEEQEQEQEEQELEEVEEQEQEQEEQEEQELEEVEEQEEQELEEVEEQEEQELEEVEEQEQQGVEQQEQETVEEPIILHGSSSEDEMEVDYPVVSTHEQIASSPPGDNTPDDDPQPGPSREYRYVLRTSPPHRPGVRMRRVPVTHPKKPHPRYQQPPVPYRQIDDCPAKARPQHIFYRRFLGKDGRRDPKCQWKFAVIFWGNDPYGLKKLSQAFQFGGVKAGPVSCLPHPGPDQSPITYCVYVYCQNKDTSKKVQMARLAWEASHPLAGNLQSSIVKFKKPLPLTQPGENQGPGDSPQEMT
T cruzi repl: inhibitors of intracellular T. cruzi growth, primary screen, luminescence, NIH3T3 host cells; inhibition, % (concentration not given with the values); T. cruzi beta-gal in NIH3T3, 90 h; AID 1885, 2009; 300,000 tested, 1.4% active;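 active = mean inhibition across valid replicates above about 55%, limit read from the data; inconclusive = mean below that limit but half or more replicates reach it; inactive = mean below it, under half of replicates reach it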;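 also: signal also drops with host cell toxicity which is not excluded here; 0% = plate median of DMSO wells and 100% = zero luminescence signal; higher percent means less beta-gal luminescence so fewer parasites; stock transfer was 50 nL into about 50 µL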
Ecoli rRNA inh: reduced GFP signal of wild-type E. coli, primary screen, bacterial rRNA inhibitor project, GFP/RFP fluorescence, OD600, single point. E. coli WT GFP vs humanized-ribosome RFP mutants, 24 h; active compounds read low; DMSO median 0, no signal -100. GFP signal change (wild-type ribosome), % (no concentration beside the values). 350,000 tested, 1.6% active. AID 720706, 2013;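 active = significant combined selectivity score with lowered wild-type GFP, culture density cut under 30%, mutant RFP and density less affected; inactive = any of these conditions unmet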; also: one replicate is shown; some compounds called inactive have numbers as strong as hits
ALR H2O2 inh: inhibitors of human ALR sulfhydryl oxidase, primary screen, biochemical, H2O2 detection, HRP-luminol luminescence, single point. FAD-linked sulfhydryl oxidase ALR (Homo sapiens), P55789. purified ALR, DTT oxidation. inhibition, % (no concentration beside the values). 290,000 tested, 3.8% active;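 active = mean and each replicate at 75% or more; inconclusive = only one of the two met; inactive = neither met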;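 also: stock transfer was 7.5 nL into about 7.5 µL; 0% = neutral wells and 100% = wells with inactivated enzyme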
A1 inh: caspase 3/7 activation in MEF A1-2A-BIM cells, primary screen, A1 inhibitor project, cell-based, luminescence, HTS; caspase activation, % (concentration not given with the values); Caspase-Glo 3/7 luminescence, 3 h; percent of clofoctol response, vehicle zero; 330,000 tested, 0.066% active;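 active = over half of replicate activation scores above 10%, or exactly half above 10 with the replicate mean above 10; inconclusive = replicate mean below 10 yet half the replicates above 10; inactive = over half of replicates below 10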;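 also: wells of about 30 µL received 50 nL stock; many hits fall short of the cut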
Beta cell apopt: inhibitors of cytokine-induced beta cell apoptosis, primary screen, luminescence. 300,000 tested, 0.8% active. protection from apoptosis, % (no concentration beside the values). INS-1E cytokine-induced death, ATP luminescence, 48 h; percent of positive-control rescue, neutral wells zero;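 active = all replicates at 75% or more, or half of them and the mean; inconclusive = half reach 75% but not the mean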;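 also: 0% = cytokine-treated negative control wells and 100% = positive control rescue; higher means more ATP so stronger rescue from cytokine killing; wells of about 40 µL received 100 nL stock; the first replicate is given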
Beta2AR agonist: beta2AR agonists driving receptor internalization, primary screen, cell-based, FAP fluorogen, flow cytometry | Am2.2-beta2AR cells; reference of the scale not given here | response, % (test concentration not listed) | 340,000 tested, 0.43% active | AID 504454, 2011;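 active = response above a set limit, near 3 SD of response in nonfluorescent compounds, cut at about 42% in these data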;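 also: stock transfer was 100 nL into about 11 µL; a reference agonist was the positive control; negative values mostly stem from fluorescent compounds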
Calb FLC: C. albicans growth inhibition with fluconazole, primary screen, CaCi-2 strain, Alamar Blue fluorescence; AID 1979, 2009; C. albicans CaCi-2 (fluconazole-resistant clinical isolate) + fluconazole, 48 h; growth inhibition, % (test concentration not listed); 300,000 tested, 0.57% active;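 active = most replicates above 75%; inconclusive = exactly half above 75%; inactive = most below 75%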;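 also: all wells also contain fluconazole at 8 µg/ml as a sub-toxic cotreatment; 0% = median of DMSO wells and 100% = median of geldanamycin control wells; wells of about 8 µL received 7.5 nL stock; the first replicate is given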
Ecoli rRNA inh OD600: second read-out of Ecoli rRNA inh, no call of its own (marks repeat the call); OD600 change, %; measured here: OD600 growth;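 optical density of the mix in the first replicate; 0 = DMSO median and -100 = no signal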
Ecoli rRNA inh RFP: recorded beside Ecoli rRNA inh, whose call it bears; RFP signal change, %; measured here: RFP humanized mutant strains;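 first replicate; 0 = DMSO median and -100 = no signal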
Active calls of the source: *; ? = inconclusive; . = no result given. This is a subset (hit frequency here may not be typical).

SMILES	LANA-H2B inh	T cruzi repl	Ecoli rRNA inh	Ecoli rRNA inh OD600	Ecoli rRNA inh RFP	ALR H2O2 inh	A1 inh	Beta cell apopt	Beta2AR agonist	Calb FLC
CCOC(=O)N1CCN(S(=O)(=O)c2ccc(C(=O)Nc3sc4c(c3C(N)=O)CC(C)(C)NC4(C)C)cc2)CC1	3.7	-8	-3	-1	7.4	1	-1.0	-7	12	1
O=C(COC(=O)c1n[nH]c2ccccc12)NCc1ccccc1	-2.4	-9	.	.	.	-25	0.7	.	-1	4
C=CCNC(=O)/C(C#N)=C/c1ccc(C(=O)O)cc1	4.1	-16	8	-3	-9.0	14	-0.3	-2	0	23
COc1cccc(CN2CCN(CC(=O)Nc3ccccc3Cl)CC2)c1	1.8	12	.	.	.	.	0.7	-5	3	-13
CCCCn1c2ccc(C)cc2c2nnc(SCCN3CCCCC3)nc21	-8.1	52	-16	-21	19	4	-1.2	22	-22	-1
COc1ccc(NC(=O)CSc2ncnc3c2cnn3Cc2ccccc2)cc1	-4.9	-18	.	.	.	-8	-0.8	.	2	-9
Cn1c(=O)[nH]c(=O)c2c1nc(NCCCn1ccnc1)n2Cc1ccccc1	-4.4	-1	.	.	.	17	0.9	0	-13	0
CCCSCCCNC(=O)c1cc2c(s1)CS(=O)(=O)C2	-1.4	-8	.	.	.	-8	1.5	.	-6	?
O=C(Nc1ccccc1)c1ccc(NCCN2CCOCC2)c(S(=O)(=O)N2CCOCC2)c1	-0.4	26	.	.	.	-6	1.0	-2	-14	-11
CC(C)c1ccc(NC(=O)C2=NNC(=O)CC2)cc1	1.9	-4	.	.	.	-7	-1.7	4	3	13
COc1cc(N)cc(NC(=O)c2ccncc2)c1	2.9	-14	.	.	.	-3	0.2	4	-3	.
O=C(Oc1cc(-c2ccccc2)no1)c1ccc(F)cc1	-2.3	-10	.	.	.	0	-0.7	-6	3	-3
CCOC(=O)COc1ccc(C2NC(C(=O)O)CS2)cc1 (centres undefined)	0.0	-9	.	.	.	.	-0.2	-3	2	3
Cc1c(C(=O)N(Cc2cccs2)C2CCS(=O)(=O)C2)oc2ccccc12 (centres undefined)	2.6	0	.	.	.	-21	0.1	0	-5	1
COc1ccc(C2C(C(=O)O)c3ccccc3C(=O)N2Cc2ccco2)cc1 (centres undefined)	-0.6	8	1	-19	-0.1	-4	0.5	0	-8	-2
Cc1cccc(Nc2nc(N)nc(-c3oc4ccccc4c3C)n2)c1	0.4	52	18	8	-0.3	0	0.6	21	8	6
O=C(CN1C(=O)NC2NC(=O)NC21)NC1CCCCC1 (centres undefined)	1.0	-5	25	4	0.8	0	0.0	1	-4	2
Cn1c(=O)c2c(nc(NCC3CCCO3)n2Cc2ccccc2)n(C)c1=O (centres undefined)	3.0	2	.	.	.	20	0.1	1	-5	6
O=C(c1cc2cc(C(F)(F)F)ccc2s1)N1CCOCC1	3.4	0	3	5	-3.4	.	-0.8	-5	-4	-20
NC(=O)c1sc2nc(-c3cccs3)ccc2c1N	0.0	8	-10	-10	0.7	-3	-1.8	-5	12	-2
COc1ccccc1N(CC(=O)NCC1CCCO1)C(=O)CCC(=O)Nc1nccs1 (centres undefined)	-1.6	-9	.	.	.	-6	2.4	-8	0	9
O=C(/C=C/c1ccc2c(c1)OCO2)Nc1cc(S(=O)(=O)N2CCOCC2)ccc1N1CCOCC1	0.6	7	-9	-8	-1.2	-4	1.6	-1	0	2
OC1=C(O)c2nc3cc(F)ccc3nc21	-7.7	1	4	8	-3.1	?	0.2	2	8	5
O=C(NCCc1c[nH]c2ccccc12)C1CCCN(S(=O)(=O)c2ccccc2)C1 (centres undefined)	1.4	9	-4	-3	0.6	9	0.4	-3	-3	-2
Nc1ccc(-c2nc3c(Cl)cc(N)cc3[nH]2)cc1	0.1	.	.	.	.	99*	-2.2	28	3	0

Following part.
SMILES	LANA-H2B inh	T cruzi repl	Ecoli rRNA inh	Ecoli rRNA inh OD600	Ecoli rRNA inh RFP	ALR H2O2 inh	A1 inh	Beta cell apopt	Beta2AR agonist	Calb FLC
O=C(Nc1nc(=O)c2ccccc2s1)c1ccc(F)cc1	4.4	?	-4	11	3.5	9	-4.2	5	2	-12
CN1CCC(OC(=O)C23CCC(C)(C(=O)O2)C3(C)C)CC1 (centres undefined)	-4.7	30	13	4	0.8	-3	0.4	8	2	-13
CCCN(CCC)S(=O)(=O)c1nc2nc(C)cc(C)n2n1	-2.8	2	8	1	-1.5	3	0.4	0	-16	-4
Nc1c(C(=O)NCc2ccco2)c2nc3ccccc3nc2n1CCc1ccccc1F	0.1	8	.	.	.	-2	-0.3	-10	-9	1
COc1cccc(CNc2nc3ccccc3n2C(C)C)c1O	.	-4	3	-4	-1.2	.	.	.	4	24
O=C(NCC(c1ccccc1Cl)N1CCCC1)C1CCN(C(=O)Nc2ccccc2)CC1 (centres undefined)	-0.2	.	5	5	-2.7	1	0.7	3	12	.
CN(Cc1nc(Cc2cccc(C(F)(F)F)c2)no1)C1CC(C)(C)NC(C)(C)C1	1.2	9	8	7	2.2	3	-0.5	-8	2	1
O=C(NCCN1CCOCC1)C1CCN(c2ncnc3c2sc2cccc(F)c23)CC1	0.8	-4	-6	-1	0.9	-3	1.3	9	-34	1
C/C(=N\NC(=O)C(O)c1ccccc1)c1ccc(Cl)s1 (centres undefined)	-3.1	-17	1	4	3.8	-9	-1.0	-4	-2	5
Cc1ccc(SCCNC(=O)CN(c2ccc3c(c2)OCO3)S(C)(=O)=O)cc1	3.3	-7	.	.	.	1	-0.3	.	0	-35
Cc1cc(=O)oc2cc(OC(C)C(=O)NCCc3ccc(S(N)(=O)=O)cc3)ccc12 (centres undefined)	-0.1	-4	1	1	4.5	-2	0.2	-1	0	13
COc1cc(NC(=S)NCc2ccco2)cc(OC)c1OC	2.1	-3	.	.	.	-10	-1.1	-1	-3	-1
Cc1cc(=O)[nH]c(-n2[nH]c(C)cc2=O)n1	-10	-8	.	.	.	64	0.2	-10	-2	-12
Cc1ccsc1CNCC(O)c1ccccc1 (centres undefined)	3.4	-1	4	4	0.5	.	0.2	1	-4	-3
CCOc1ccccc1CN1CCC(n2nccc2NC(=O)CCc2ccccc2)CC1	1.5	21	-2	-9	-1.8	-3	0.4	-1	-11	-21
O=C(Nc1ccc(Cl)cc1)c1ccc2c(=O)n3c(nc2c1)CCCCC3	.	10	-21	-26	-0.1	.	.	.	-4	15
CCN(C(=O)COC(=O)c1ccc(C)c(S(=O)(=O)N2CCOCC2)c1)C1CCS(=O)(=O)C1 (centres undefined)	-2.0	-8	0	-1	0.4	0	-2.0	.	-4	-7
CC(C(=O)N1CCCC1)N(C)CC(=O)Nc1cccc(F)c1 (centres undefined)	-8.1	.	3	10	-3.8	0	?	1	-5	.
O=C(c1ccc([N+](=O)[O-])s1)N1CCc2ccccc21	8.9	37	1	11	-2.2	.	0.1	-12	2	-16
NS(=O)(=O)c1cccc(NC(=O)CSc2nnc(-c3ccccc3)o2)c1	-1.0	.	-1	6	-2.6	.	0.1	0	-5	.
O=C1c2sc3nc4n(c(=O)c3c2CCC1Br)CCCCC4 (centres undefined)	-3.6	6	.	.	.	82*	-2.2	-11	7	1
CCC(C)c1ccc(NC(=O)N2CCN(C(=O)C3CCCO3)CC2)cc1 (centres undefined)	-2.8	-7	-6	-1	-0.3	-5	0.5	-6	0	.
Nc1c(-c2ccccc2)c(CSc2nc3ccccc3[nH]2)nn1-c1cccc(C(=O)O)c1	4.3	-1	-6	2	-1.4	.	0.5	-15	-14	3
CC1(C)CC(=O)C(C(c2ccc(Br)cc2)C2C(=O)CC(C)(C)CC2=O)C(=O)C1	0.4	-18	5	3	-0.5	38	-0.3	-6	-4	0
Cc1cccn2c(=O)c3cc(C(=O)NCCCn4ccnc4)n(C)c3nc12	2.3	11	.	.	.	.	-0.2	1	4	13

Remaining list, next part
SMILES	LANA-H2B inh	T cruzi repl	Ecoli rRNA inh	Ecoli rRNA inh OD600	Ecoli rRNA inh RFP	ALR H2O2 inh	A1 inh	Beta cell apopt	Beta2AR agonist	Calb FLC
C/C(=N\Nc1nncc2ccccc12)c1ccc(C(C)(C)C)cc1	-2.9	18	.	.	.	0	-0.7	3	-3	-12
Cc1ccc(N2CC(C(=O)Nc3c(C)n(C)n(-c4ccccc4)c3=O)CC2=O)cc1 (centres undefined)	3.8	3	5	-3	-0.5	2	1.2	-8	0	18
CCn1nc(C(=O)Nc2cccc(C(F)(F)F)c2)c(Cl)c1Cl	3.7	-3	.	.	.	-7	0.0	9	0	-5
NC(N)=NC(N)=Nc1ccc(SC(F)(F)F)cc1	3.3	-57	.	.	.	-5	-1.1	116*	-4	13
CCCCn1c(=O)[nH]c(=O)c2c1nc(-c1ccc(C)c([N+](=O)[O-])c1)n2CC	4.2	-17	15	13	4.3	96*	-0.4	15	2	2
O=C(Nc1nccs1)c1cc([N+](=O)[O-])ccc1Cl	0.7	21	1	8	-2.8	-14	0.1	-5	-1	-2
O=C(CSc1nnc(Cc2cc(=O)[nH]c(=O)[nH]2)n1-c1ccccc1)NCC1CCCO1 (centres undefined)	1.7	-5	.	.	.	0	1.6	-7	2	-20
O=C1NC(=O)C(c2cccs2)(c2cccs2)N1	6.4	-1	9	9	1.4	-1	-0.7	-8	1	4
CCOc1cc(C=O)ccc1OCC(=O)NC(C)(C)C	-1.3	-17	5	3	-1.3	-16	0.1	-1	-1	-10
Cc1cc(-c2n[nH]c(=S)n2/N=C/c2c[nH]c3ccccc23)n[nH]1	1.4	-3	1	-1	0.7	52	0.1	-3	-5	-7
CC1(OC(=O)CCc2ccccc2)C(=O)C=C2C=C(c3ccc(C#N)cc3)N(C3CCCC3)C=C2C1=O (centres undefined)	2.6	4	12	10	6.8	-18	0.2	7	4	22
CC1(c2nnc(-c3ccc(F)cc3)o2)CC(c2ccccc2)=NO1 (centres undefined)	5.8	0	.	.	.	-7	-0.3	-8	-3	-2
COc1cc(/C=N/NC(=O)c2nc(-c3ccccc3)n(-c3ccccc3)n2)ccc1O	-0.6	14	.	.	.	85*	-1.1	-2	1	25
COCCn1c(SCC(=O)OCc2ccccc2)nc2c1c(=O)[nH]c(=O)n2C	5.2	-8	-5	8	0.9	98*	1.2	-2	22	2
CC(Nc1cc(N2CCOCC2)ccc1[N+](=O)[O-])c1ccccc1 (centres undefined)	3.4	8	.	.	.	-4	1.1	1	1	2
COc1cccc(-c2nc(CS(=O)(=O)c3ccccc3)no2)c1	-4.7	12	.	.	.	-2	-2.7	2	2	26
